Vaccinia Venus = qHTS for Stage-Specific Inhibitors of Vaccinia Orthopoxvirus: Venus Reporter Primary qHTS. Vaccinia virus Venus reporter expression, fluorescence. Potency, µM (titrated, usually from 36.5 µM), for the others: at the top dose activity change, negative = inhibition, actives largely listed as inhibitors. 330,000 tested, 0.46% active. AID 720580, 2013; active means well fitted inhibition curve with a large enough effect; inconclusive means small, poorly fitted or top-dose-only effect; inactive means no such curve, though single readings can be large or run the other way; tested in A549 cells; note: nearly all actives have a fitted effect of over 30% in size; inactives centre near -10
VACV mCherry inh = qHTS for Stage-Specific Inhibitors of Vaccinia Orthopoxvirus: mCherry Reporter Primary qHTS; AID 720579, 2013; Potency, µM (titrated, usually from 36.5 µM), inactives show at the highest dose activity change, negative = inhibition, most hits filed as inhibitors; Vaccinia virus mCherry reporter infection, fluorescence; about a quarter of the inactives have no number; 310,000 tested, 0.63% active; active = well fitted inhibition curve with a large enough effect; inconclusive = small, poorly fitted or top-dose-only effect; inactive = no such curve, though single readings can be large or run the other way; tested in A549 cells; note: nearly all actives have a fitted effect of over 35% in size; inactives centre near -10
Active calls of the source: *; i = inactive; ? = inconclusive; . = not tested or not shown; & = joins results of further samples; [ ] = another dose, or the depositor's remark. % is set by controls: 0 for no effect and ±100 for the full control effect; potency is the fitted concentration of half-maximal effect.

SMILES	Vaccinia Venus	VACV mCherry inh
O=C1NC2(CCCCCC2)C(=O)N1Cc1ccccc1F	-8%	-18%
COc1ccc(C(Nc2ccccn2)c2ccc3ccc(C)nc3c2O)cc1C (configuration not stated)	-8%	-13%
CC(C)NS(=O)(=O)c1ccc(OCC(=O)NC2CCCCCC2)cc1	-9%	i
Cc1[nH]c(=O)[nH]c(=O)c1N(C)C	-14%	-1%
CCOC(=O)C(CCCCCCC(NC(C)=O)(C(=O)OCC)C(=O)OCC)(NC(C)=O)C(=O)OCC	0%	-7%
O=C(O)CC(c1ccc(F)cc1F)N1Cc2ccccc2C1=O (configuration not stated)	-5%	i
O=C(CCSc1ccccc1)Nc1ccc(S(=O)(=O)Nc2ncccn2)cc1	3%	0%
C[C@H](CO)N1C[C@H](C)[C@H](CN(C)Cc2ccc(C(=O)O)cc2)OCc2ccccc2-c2c(n(C)c3ccccc23)C1=O	-13%	-15%
CC1=C(C(=O)Nc2cccnc2)C(c2cccc(O)c2)n2nc(SCc3ccccc3)nc2N1 (configuration not stated)	-3%	3%
Nc1ncc(S(=O)(=O)NCc2ccccc2F)cn1	-5%	-15%
CCOC(=O)c1c(C)oc2ccc(N(C(=O)c3ccncc3)S(=O)(=O)c3ccc(F)cc3)cc12	-8%	-16%
Cc1cccc2cc(CN(CC3CCCO3)C(=O)c3cccc(F)c3)c(N(C)C)nc12 (configuration not stated)	3%	-14%
O=C(O)CSc1ncnc2c1oc1ccccc12	3%	.
CC(=O)c1ccc(S(=O)(=O)NC2CC(=O)N(c3cccc(F)c3)C2)cc1 (configuration not stated)	-2%	-7%
COc1cc(C)c(S(=O)(=O)N2CCOCC2)cc1C(C)C	-10%	-21%
COc1ccc(CCNC(=O)COc2ncnc3ccccc23)cc1OC	6%	i
Nc1ccccc1NC(=O)NC(=O)c1ccccc1	-16%	i
CC1(C)CC(Cc2ccccc2C(F)(F)F)N(C(=O)OC(C)(C)C)C1 (configuration not stated)	-5%	-5%
O=C(NC1CCCCCC1)C1CCC(CNS(=O)(=O)c2ccc(Br)s2)CC1 (configuration not stated)	-6%	-12%
CC(C)CCC1(CN2CCCC2=O)C(=O)NC(=O)NC1=O	-21%	.
COc1cc(C=O)ccc1OCc1ccc(Cl)nc1	-14%	i
CCCCCn1c(=N)n(CC(O)COc2ccccc2OC)c2ccccc21 (configuration not stated)	?	?
O=C(COc1cccc(NC(=O)c2cccc([N+](=O)[O-])c2)c1)c1ccc(F)cc1	?	-16%
COc1cc2[nH]c(=O)n(-c3ccccc3)c(=O)c2cc1OC	-11%	-9%
O=C(NC(CO)Cc1ccc([N+](=O)[O-])cc1)C(Cl)Cl (configuration not stated)	-16%	i
COc1ccc(CNc2nc(-c3ccc(OC)c(OC)c3)cc(C(F)(F)F)n2)cc1	-5%	-21%
CN1CCN(NC(=O)Nc2cccc(Cl)c2Cl)CC1	-5%	0%
O=C(C1CCN(S(=O)(=O)c2ccccc2)CC1)N1CCc2ccccc21	0%	-2%
O=C(c1cnc(N2CCOCC2)c2ccccc12)N1CCN(c2ccccc2F)CC1	-13%	-12%
O=C(CN(CC1CCCO1)C(=O)CCC(=O)Nc1ccccn1)NCC1CCCO1 (configuration not stated)	?	.
CC1CCCN(C(C(=O)Nc2ccc3c(c2)OCO3)c2ccccc2)C1 (configuration not stated)	-1%	i
O=C(N/N=C/C=C\c1ccccc1)c1cnccn1	-2%	-20%
O[C@H]1[C@H](O)[C@@H](O)CN2CC[C@H](O)[C@H]12	-18%[87.9 µM]	-7%[87.9 µM]
COC(=O)[C@H](CC(C)C)NC(=O)NCCCc1ccccc1	-15%	i
COc1cc2ccccc2cc1C(=O)Nc1ccccc1N1CCN(S(C)(=O)=O)CC1	-15%	-2%
O=C(NNC(=O)C1CCCO1)c1ccc(F)cc1 (configuration not stated)	-1%	-6%
O=c1oc(-c2ccco2)nc2sc3c(c12)CCCCC3	8%	-15%
CC(NC(=O)c1ccc(NC2=NC3CS(=O)(=O)CC3S2)cc1)c1ccccc1 (configuration not stated)	-5%	i
COc1ccc(-c2nc3cc(F)ccc3cc2CN(C(=O)c2cccs2)C2CC2)cc1	-11%	i
OCCN1CCN(C(c2ccc(Cl)cc2Cl)c2sc3nc(-c4ccco4)nn3c2O)CC1 (configuration not stated)	-1%	-9%
CC1=C(C(=O)N(C(C)C)C(C)C)CC(CC(=O)NCCc2ccccn2)C(=O)N1CCCN1CCCC1=O (configuration not stated)	-6%	17%
COc1cc(OC)cc(C(=O)NC(=S)N2CCCCCC2)c1	-8%	-20%
CCC1CCCCN1CCCNC(=O)C1CCCN(c2ncnc3c2nc2n3CCCCC2)C1 (configuration not stated)	-21%	-1%
O=C(/C=C/c1cccs1)N1CCN(c2ccccc2F)CC1	0%	-12%
COC(=O)C1=C(C)NC(=O)/C1=C\c1cc(C)n(-c2c(C)cccc2C)c1C	-5%	-6%
CCCCCN(C(=O)NC(=O)Nc1ccc(C)cc1)S(=O)(=O)c1ccccc1	-9%	-22%
CCN(C(=O)CSc1nnc(-c2cccc(F)c2)n1N)c1c(N)n(Cc2ccccc2)c(=O)[nH]c1=O	2%	-13%
O=C(c1c[nH]c2ccccc12)N1CCN(Cc2ccccc2)CC1	-11%	?
Cc1ccc(C(C(=O)NCc2ccco2)N(C(=O)Cn2nnc3ccccc32)c2ccccc2)o1 (configuration not stated)	-19%	.
CCOC(=O)N1CCN(S(=O)(=O)c2ccc(C(=O)NNc3nc4c(C)cccc4s3)cc2)CC1	-20%	-10%
The list continues:
SMILES	Vaccinia Venus	VACV mCherry inh
N#CCNC(=O)C1CC(=O)N(CCc2ccc(F)cc2)C1 (configuration not stated)	-16%	-2%
CCc1ccc[n+](-c2[nH]c(=O)sc2/C=N/N=C(\[O-])CCn2c3ccccc3c3ccccc32)c1	0%	-17%
O=C(CSCc1ccc(Cl)cc1)NCc1ccccn1	-20%	-21%
CN(C(=O)CSc1ncc(C(F)(F)F)cc1Cl)c1c(N)n(Cc2ccccc2)c(=O)[nH]c1=O	-15%	i
Cc1nc(NC(=O)c2ccc(Cl)cc2)nc2cc3c(cc12)OCO3	-28%	-12%
Cc1ccc(CNc2ncnc3onc(C)c23)cc1	-14%	-23%
COC(=O)[C@]12CCCCC=C1N(Cc1ccco1)C(=O)[C@H](CC(=O)N1CCSCC1)C2	3%	-7%
O=C1C2C3C=CC(O3)C2C(=O)N1N=C1CCCCC1 (configuration not stated)	-17%	i
CCOC(=O)Cc1csc(NC(=O)c2cc(C)on2)n1	-8%	i
CCCCN(C)C(=O)Cn1ncc2c([nH]c3ccc(C)cc32)c1=O	-15%	-14%
CCCCNc1nc(Oc2ccc(=O)n(C)n2)nc(N(C)C)n1	-1%	2%
Cc1ccc(C(=O)NNC(=O)CSc2nnc3c(n2)[nH]c2ccc(C)cc23)cc1	-13%	-5%
COc1ccccc1C1=NNC(=NCc2ccccc2)SC1	-19%	-11%
CN(C(=O)Cn1cc(C#N)c2ccccc21)c1ccccc1	-6%	2%
Cn1ncc(Br)c1C(=O)Nc1ccc(Br)cn1	-6%	-9%
Cc1ccc(F)cc1NC(=S)NCCc1ccccc1	-17%	-13%
Cc1ccc(NC(=O)c2ccco2)c([N+](=O)[O-])c1	6%	-6%
COc1ccc(C(=O)OCCN2CCN(C3=NS(=O)(=O)c4ccccc43)CC2)cc1OC	-19%	-22%
Cc1ccc(Nc2nc(CSc3nnc(-c4cccnc4)n3-c3ccccc3C)cs2)cc1	-21%	?
CN(CC(=O)Nc1ccc(Cl)c(C(F)(F)F)c1)S(=O)(=O)c1cnc[nH]1	-23%	i

Ordered by count of non-hydrogen atoms (largest number first): some entries from above
SMILES	Vaccinia Venus	VACV mCherry inh
CC1=C(C(=O)N(C(C)C)C(C)C)CC(CC(=O)NCCc2ccccn2)C(=O)N1CCCN1CCCC1=O (configuration not stated)	-6%	17%
Cc1ccc(C(C(=O)NCc2ccco2)N(C(=O)Cn2nnc3ccccc32)c2ccccc2)o1 (configuration not stated)	-19%	.
CCOC(=O)c1c(C)oc2ccc(N(C(=O)c3ccncc3)S(=O)(=O)c3ccc(F)cc3)cc12	-8%	-16%
Cc1ccc(Nc2nc(CSc3nnc(-c4cccnc4)n3-c3ccccc3C)cs2)cc1	-21%	?
COc1ccc(C(=O)OCCN2CCN(C3=NS(=O)(=O)c4ccccc43)CC2)cc1OC	-19%	-22%
COc1ccc(CNc2nc(-c3ccc(OC)c(OC)c3)cc(C(F)(F)F)n2)cc1	-5%	-21%
Cc1ccc(C(=O)NNC(=O)CSc2nnc3c(n2)[nH]c2ccc(C)cc23)cc1	-13%	-5%
CC(NC(=O)c1ccc(NC2=NC3CS(=O)(=O)CC3S2)cc1)c1ccccc1 (configuration not stated)	-5%	i
COc1ccc(CCNC(=O)COc2ncnc3ccccc23)cc1OC	6%	i
CN(CC(=O)Nc1ccc(Cl)c(C(F)(F)F)c1)S(=O)(=O)c1cnc[nH]1	-23%	i
Cc1nc(NC(=O)c2ccc(Cl)cc2)nc2cc3c(cc12)OCO3	-28%	-12%
CCCCNc1nc(Oc2ccc(=O)n(C)n2)nc(N(C)C)n1	-1%	2%
COc1ccccc1C1=NNC(=NCc2ccccc2)SC1	-19%	-11%
O=c1oc(-c2ccco2)nc2sc3c(c12)CCCCC3	8%	-15%
CN1CCN(NC(=O)Nc2cccc(Cl)c2Cl)CC1	-5%	0%
O=C(O)CSc1ncnc2c1oc1ccccc12	3%	.
Cn1ncc(Br)c1C(=O)Nc1ccc(Br)cn1	-6%	-9%

Carrying on:
SMILES	Vaccinia Venus	VACV mCherry inh
COc1ccc(O)c(C2=Nc3ccccc3N=C(c3ccccc3)C2)c1	-11%&-7%	-4%
Nc1cc(=O)[nH]c(SCc2nnc(-c3ccccc3)o2)n1	-12%	-7%
CCN(CC)CCCNc1cc(C(F)(F)F)c(C#N)c2nc3ccccc3n12	-4%	-21%
Cc1ccc(S(=O)(=O)/C(C#N)=C/c2c(N3CCN(C)CC3)nc3c(C)cccn3c2=O)cc1	-12%	.
CCn1c(=O)c(C(=O)CN2c3ccccc3CC2C)c(N)n(Cc2ccccc2)c1=O (configuration not stated)	-19%	-1%
CCOC(=O)C1(C)CCCN(C(=O)c2cccc3ccccc23)C1 (configuration not stated)	-3%	i
CCN1CCN(C(=O)C2CCCN(S(=O)(=O)c3cc(Cl)ccc3Cl)C2)CC1 (configuration not stated)	-20%	i
Cn1cnc2cc(NC(=O)c3cccs3)ccc21	?	i
CN(C)Cc1nnnn1-c1cccc(-n2nnnc2CN(C)C)c1	-2%	i
Cn1c(COc2ccccc2C(C)(C)C)nc2ccccc21	-16%	-15%
COc1ccc(NC(=O)CCn2c(=O)c3cccn3c3cccnc32)cc1Cl	-2%	-14%
Cc1ccc(NC(=O)CCSCCc2ccccn2)cc1	18%&-5%	-1%
COc1ccc(N2CCN(C(=O)c3ccc(CNS(=O)(=O)c4cccc(OC)c4)cc3)CC2)cc1	-22%	?
CCCCCCC(=O)N/N=C/c1ccc(Br)cc1	-19%	-7%
COC(=O)[C@@]1(Sc2ccc(C)cc2)CC(=O)N[C@@H]1c1ccc(Br)cc1	2%	8%
Cc1nc2ccc([N+](=O)[O-])cc2c(=O)n1Cc1cccc(Br)c1	-5%	-11%
Cc1n[nH]c(=S)n1-c1ccccc1	-4%	-10%
CC1=NN(C(C#N)c2ccc([N+](=O)[O-])cc2)C(C)(C)C1 (configuration not stated)	-5%	-21%
Cc1ccc(N2CC(NC(=O)C3CC3)CC2=O)cc1 (configuration not stated)	1%	-6%
O=C(Nc1cccc(NC(=O)c2ccccc2Cl)c1)c1cccs1	-10%	-3%
COc1ccccc1CNc1ncnc2ccc(-c3ccccc3CN(C)C)cc12	0%	i
COc1c(C)cc(NS(=O)(=O)c2ccc3c(c2)OCCO3)cc1C	-13%	-21%
Cc1ccc(S(=O)(=O)Nc2ccc(Cl)cc2)cc1NC(=O)Cn1cnc2c1c(=O)n(C)c(=O)n2C	1%	-6%
O=C(CC1N=C2c3ccccc3N=C(SCC(=O)Nc3ccccc3F)N2C1=O)NCc1ccc2c(c1)OCO2 (configuration not stated)	-3%	5%
C#CCOCCOCCOCCNc1nc(N2CCN(C(=O)[C@H]([C@@H](C)CC)n3cc([C@@H](N)CO)nn3)CC2)nc(N2CCN(C(=O)[C@H](Cc3ccc(O)cc3)n3cc([C@@H](N)C(C)CC)nn3)CC2)n1 (some centres not stated)	-11%	i
CCc1ccc(CN(Cc2ccco2)C(=O)c2ccc(C)cc2)cc1	-5%	6%
COc1cccc(-c2sc3ccccc3c2-c2ccc(OCCN3CCCCC3)cc2)c1	-15%	i
CCOCCOC(=O)c1[nH]c2c(c1C)C(=O)CC(c1ccc(N(C)C)cc1)C2 (configuration not stated)	-26%	?
COc1ccc(OCC(O)CN2CCCCC2)cc1 (configuration not stated)	-1%	i
CCN(CC)c1ccc(NC(=O)C2CCN(S(=O)(=O)c3cnc[nH]3)CC2)c(C)c1	0%	0%
O=C(NCC(=O)N(Cc1ccco1)C(C(=O)NC1CCCCC1)c1cccnc1)c1ccco1 (configuration not stated)	-3%	-12%
